rRNA inh HTS: inhibitors of bacterial rRNA selective over humanized ribosomes | E. coli WT GFP vs humanized-ribosome RFP mutants, fluorescence, 24 h; hits give low values; DMSO median 0, no signal -100 | GFP signal change (wild-type ribosome), % (test concentration not listed) | hit rate 1.6% among 350,000 | AID 720706;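 active means significant combined selectivity score with lowered wild-type GFP, culture density cut under 30%, mutant RFP and density less affected; inactive means any of these conditions unmet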; further: one replicate is shown; some compounds called inactive have numbers as strong as hits
AF4-AF9 inh: inhibitors of human MLL-AF4/AF9 interaction; P42568; AlphaScreen, biotin-AF4 peptide binding to FLAG-AF9; inhibition, % at 10 µM; hit rate 0.47% among 350,000;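 active means every replicate reaching a set inhibition limit, whatever the replicate mean, cut at about 25% in these data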;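 further: 0% = plate neutral control median and 100% = total signal loss; the record names both 10 and 1 µM as test concentration; the first replicate is given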
Target sequence (P42568 whole entry, looked up): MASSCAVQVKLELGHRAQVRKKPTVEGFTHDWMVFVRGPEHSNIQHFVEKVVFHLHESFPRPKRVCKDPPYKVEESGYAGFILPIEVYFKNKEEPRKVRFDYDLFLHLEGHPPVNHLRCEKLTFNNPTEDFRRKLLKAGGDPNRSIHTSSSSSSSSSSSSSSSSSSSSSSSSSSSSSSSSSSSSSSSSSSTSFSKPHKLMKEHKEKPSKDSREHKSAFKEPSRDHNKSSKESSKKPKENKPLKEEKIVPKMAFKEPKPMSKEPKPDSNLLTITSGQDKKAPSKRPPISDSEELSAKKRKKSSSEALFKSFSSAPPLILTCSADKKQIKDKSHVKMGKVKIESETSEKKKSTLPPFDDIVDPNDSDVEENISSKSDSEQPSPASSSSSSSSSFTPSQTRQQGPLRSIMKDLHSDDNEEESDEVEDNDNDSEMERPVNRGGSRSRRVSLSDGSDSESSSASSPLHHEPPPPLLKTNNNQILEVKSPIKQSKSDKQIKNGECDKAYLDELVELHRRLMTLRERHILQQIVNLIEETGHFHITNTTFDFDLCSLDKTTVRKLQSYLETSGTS
Vif A3G: inhibitors of Vif binding to APOBEC3G peptide, primary screen, biochemical, TR-FRET, GST-Vif 1-94, biotin-A3G peptide, dose response retest (AID 1117319); TR-FRET GST-Vif / biotin-A3G peptide binding; higher % means a stronger effect; test concentration not given here; strong numbers were not always called active; inhibition, %, or IC50 in µM where a hit was titrated; hit rate 0.57% among 260,000;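 active means above the screen mean plus three standard deviations and confirmed in dose response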;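 further: Vif residues 1-94 fused to GST binding biotinylated APOBEC3G peptide 110-148; 0% = full assay without inhibitor and 100% = GST in place of GST-Vif; retest series ran down from 100 µM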
rRNA inh HTS OD600: further read-out of rRNA inh HTS, marked with its call; OD600 change, %; measured here: OD600 growth;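 optical density of the mix in the first replicate; 0 = DMSO median and -100 = no signal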
rRNA inh HTS RFP: also measured in rRNA inh HTS; calls as there; RFP signal change, %; measured here: RFP humanized mutant strains;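 first replicate; 0 = DMSO median and -100 = no signal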
* hit, by the source's call; & = joins results of further samples. This is a subset (hit frequency here may not be typical).

Results for O=C(COc1ccc(Br)cc1)OCC(=O)c1ccc[nH]1 ?
rRNA inh HTS: 7; AF4-AF9 inh: 1.1; Vif A3G: 1%; rRNA inh HTS OD600: 12; rRNA inh HTS RFP: 1.4

How did CC(OC(=O)Cc1ccsc1)C(=O)Nc1ccc(C(N)=O)cc1 (configuration not stated) do in these assays?
rRNA inh HTS: 5; AF4-AF9 inh: 1.0; Vif A3G: -6%; rRNA inh HTS OD600: 15; rRNA inh HTS RFP: -0.2

What do the screens show for `Cc1cc(N=Nc2ccccc2)cc(C)c1NC(=O)C(F)(F)F`?
rRNA inh HTS: -4; AF4-AF9 inh: 5.6; Vif A3G: -4%; rRNA inh HTS OD600: 2; rRNA inh HTS RFP: 3.1

What do the screens show for `CCCCCc1ccnc(CC(=O)c2ccc(OC)cc2)c1`?
rRNA inh HTS: 2; AF4-AF9 inh: -7.2; Vif A3G: 0%; rRNA inh HTS OD600: 2; rRNA inh HTS RFP: 2.5

What do the screens show for `CC1CCCCC1NC(=O)c1ccco1` (configuration not stated)?
rRNA inh HTS: -1; AF4-AF9 inh: -4.4; Vif A3G: 6%; rRNA inh HTS OD600: 2; rRNA inh HTS RFP: -0.8

What do the screens show for `C[C@H](CO)N1C[C@H](C)[C@H](CN(C)C(=O)Cc2ccccc2)OCc2cnnn2CCCC1=O`?
rRNA inh HTS: 0; AF4-AF9 inh: 0.8&0.3&-1.4; Vif A3G: -6%; rRNA inh HTS OD600: 4; rRNA inh HTS RFP: -0.2

Results for O=S(=O)(c1ccc(F)cc1)N1CCN(CC(O)COCC2CCCO2)CC1 (configuration not stated) ?
rRNA inh HTS: 1; AF4-AF9 inh: -10; Vif A3G: -1%; rRNA inh HTS OD600: 5; rRNA inh HTS RFP: -1.1

Results for CC(C)(C)S(=O)(=O)N1Cc2cc(CO)cc(CCO)c2[C@@H]1CCO ?
rRNA inh HTS: 0; AF4-AF9 inh: -5.2; Vif A3G: 3%; rRNA inh HTS OD600: 10; rRNA inh HTS RFP: -3.0

How did CC(OC(=O)c1ccc(F)c(S(=O)(=O)N2CCOCC2)c1)C(=O)NC1CCCC1 (configuration not stated) do in these assays?
rRNA inh HTS: 3; AF4-AF9 inh: 0.3; Vif A3G: -1%; rRNA inh HTS OD600: 1; rRNA inh HTS RFP: -1.7

What do the screens show for `O=[N+]([O-])c1ccccc1C(O)Cc1ccccn1` (configuration not stated)?
rRNA inh HTS: 5; AF4-AF9 inh: -2.6; Vif A3G: -8%; rRNA inh HTS OD600: 12; rRNA inh HTS RFP: -3.0

Results for CCCCN(CCCC)c1nn[nH]n1 ?
rRNA inh HTS: -2; AF4-AF9 inh: -2.3; Vif A3G: -2%; rRNA inh HTS OD600: 0; rRNA inh HTS RFP: -5.0

What do the screens show for `Cc1ccc2c(c1)CCCN2C(=O)c1cc(C)c(C)s1`?
rRNA inh HTS: -30; AF4-AF9 inh: -0.4; Vif A3G: 61%; rRNA inh HTS OD600: -28; rRNA inh HTS RFP: -8.7

Results for CC1CC(C)(C)NC2(CCCC2)N1 (configuration not stated) ?
rRNA inh HTS: 16; AF4-AF9 inh: -9.3; Vif A3G: 1%; rRNA inh HTS OD600: 15; rRNA inh HTS RFP: 0.8

Results for CC1(c2ccccc2)CC(c2ccccc2)=C(C#N)C(=O)N1 (configuration not stated) ?
rRNA inh HTS: -2; AF4-AF9 inh: -2.8; Vif A3G: -1%; rRNA inh HTS OD600: -6; rRNA inh HTS RFP: 0.8

Results for CCc1cccc(NC(=O)c2cc(S(=O)(=O)N3CCCCC3)ccc2N2CCOCC2)c1 ?
rRNA inh HTS: -1; AF4-AF9 inh: -4.1; Vif A3G: -49%; rRNA inh HTS OD600: 4; rRNA inh HTS RFP: 2.1

Results for COc1ccc(NC(=O)c2cc([N+](=O)[O-])ccc2N2CCCC2)cc1S(N)(=O)=O ?
rRNA inh HTS: -7; AF4-AF9 inh: 14; Vif A3G: -4%; rRNA inh HTS OD600: 0; rRNA inh HTS RFP: -0.1

How did O=C1C=CC(=O)N1c1cccc2cccnc12 do in these assays?
rRNA inh HTS: 23; AF4-AF9 inh: 2.8; Vif A3G: 7%; rRNA inh HTS OD600: 9; rRNA inh HTS RFP: 5.6

What do the screens show for `Cc1cc([N+](=O)[O-])c(=O)[nH]c1C`?
rRNA inh HTS: 7; AF4-AF9 inh: -2.2; Vif A3G: -3%; rRNA inh HTS OD600: 9; rRNA inh HTS RFP: -1.7

How did CC(C)C[C@H]1CNC(=S)N1CC1CCCN1C[C@H](Cc1ccc(O)cc1)N1C[C@H](Cc2ccccc2)N(CC2CCCCCC2)C1=S (some centres not stated) do in these assays?
rRNA inh HTS: -4; AF4-AF9 inh: 0.4; Vif A3G: -3%; rRNA inh HTS OD600: 5; rRNA inh HTS RFP: -1.0

Results for CC1CCCC(NC(=O)c2cc(-c3ccncc3)nc3ccccc23)C1C (configuration not stated) ?
rRNA inh HTS: 4; AF4-AF9 inh: 2.2; Vif A3G: 2%; rRNA inh HTS OD600: 5; rRNA inh HTS RFP: -0.7

How did C[C@@H]1COC(=O)[C@@H](CC(=O)OC(C)(C)C)C/C=C\C[C@@H](CC(=O)NCCO)C(=O)N1 do in these assays?
rRNA inh HTS: 3; AF4-AF9 inh: -1.5; Vif A3G: 0%; rRNA inh HTS OD600: 16; rRNA inh HTS RFP: 0.9

How did Cn1c(N)c(C(=O)COC(=O)CC(NC(N)=O)c2ccc(Cl)cc2)c(=O)n(C)c1=O (configuration not stated) do in these assays?
rRNA inh HTS: 14; AF4-AF9 inh: -0.2; Vif A3G: -2%; rRNA inh HTS OD600: 10; rRNA inh HTS RFP: 4.8

What do the screens show for `NC(=Nc1nc(-c2ccccn2)cc2ccccc12)c1ccccn1`?
rRNA inh HTS: -24; AF4-AF9 inh: 3.2; Vif A3G: -2%; rRNA inh HTS OD600: -54; rRNA inh HTS RFP: 0.4

What do the screens show for `Cc1ccc(C(=O)NCC(=O)Nc2ccc3c(c2)CCC3)cc1C`?
rRNA inh HTS: 6; AF4-AF9 inh: 0.2; Vif A3G: 4%; rRNA inh HTS OD600: 6; rRNA inh HTS RFP: 1.2

How did CCOC(=O)Nc1ccc(OC(=O)Oc2ccc(NC(=O)OCC)cc2)cc1 do in these assays?
rRNA inh HTS: 8; AF4-AF9 inh: 5.1; Vif A3G: 1%; rRNA inh HTS OD600: 11; rRNA inh HTS RFP: 0.1

How did COc1cccc(NC(=O)CN(C)C(=O)CCC(=O)c2cc(C)sc2C)c1 do in these assays?
rRNA inh HTS: -3; AF4-AF9 inh: -0.1; Vif A3G: -10%; rRNA inh HTS OD600: -4; rRNA inh HTS RFP: 1.5

Results for O=C(NC1CCOC1=O)c1ccccc1 (configuration not stated) ?
rRNA inh HTS: 13; AF4-AF9 inh: -6.2; Vif A3G: 28%; rRNA inh HTS OD600: 16; rRNA inh HTS RFP: -0.5

How did CN=C1N(C)C[C@@H]2[C@@H]3C(=O)N(Cc4ccccc4)C(=O)[C@@H]3[C@](Cc3ccccc3)(C(=O)OC)N12 do in these assays?
rRNA inh HTS: -7; AF4-AF9 inh: -4.4; Vif A3G: 5%; rRNA inh HTS OD600: 8; rRNA inh HTS RFP: 8.3

How did O=S(=O)(NN=Cc1ccc(O)cc1O)c1cc(Cl)c(Cl)cc1Cl do in these assays?
rRNA inh HTS: -15*; AF4-AF9 inh: -0.7; Vif A3G: 1%; rRNA inh HTS OD600: 0.6*; rRNA inh HTS RFP: 3.1*

What do the screens show for `COc1ccc(S(=O)(=O)Nc2ccc3c(c2)C(=O)N([C@H](C)CO)C[C@H](C)[C@@H](CN(C)C(=O)Nc2ccc(F)cc2)OCCCC[C@H](C)O3)cc1`?
rRNA inh HTS: 9&-2; AF4-AF9 inh: -2.5&0.3; Vif A3G: 1%; rRNA inh HTS OD600: 7&-2; rRNA inh HTS RFP: 7.7&-0.7

5 compounds picked at random from the list so far, as already listed:
How did COc1cccc(NC(=O)CN(C)C(=O)CCC(=O)c2cc(C)sc2C)c1 do in these assays?
rRNA inh HTS: -3; AF4-AF9 inh: -0.1; Vif A3G: -10%; rRNA inh HTS OD600: -4; rRNA inh HTS RFP: 1.5

What do the screens show for `Cc1cc([N+](=O)[O-])c(=O)[nH]c1C`?
rRNA inh HTS: 7; AF4-AF9 inh: -2.2; Vif A3G: -3%; rRNA inh HTS OD600: 9; rRNA inh HTS RFP: -1.7

How did O=S(=O)(NN=Cc1ccc(O)cc1O)c1cc(Cl)c(Cl)cc1Cl do in these assays?
rRNA inh HTS: -15*; AF4-AF9 inh: -0.7; Vif A3G: 1%; rRNA inh HTS OD600: 0.6*; rRNA inh HTS RFP: 3.1*

How did CN=C1N(C)C[C@@H]2[C@@H]3C(=O)N(Cc4ccccc4)C(=O)[C@@H]3[C@](Cc3ccccc3)(C(=O)OC)N12 do in these assays?
rRNA inh HTS: -7; AF4-AF9 inh: -4.4; Vif A3G: 5%; rRNA inh HTS OD600: 8; rRNA inh HTS RFP: 8.3

What do the screens show for `Cc1ccc(C(=O)NCC(=O)Nc2ccc3c(c2)CCC3)cc1C`?
rRNA inh HTS: 6; AF4-AF9 inh: 0.2; Vif A3G: 4%; rRNA inh HTS OD600: 6; rRNA inh HTS RFP: 1.2

(further entries)
How did C[C@@H]1CN([C@H](C)CO)S(=O)(=O)c2ccc(Br)cc2O[C@H]1CN(C)C(=O)Nc1ccc(F)cc1 do in these assays?
rRNA inh HTS: -11&-10; AF4-AF9 inh: -0.4&-0.7; Vif A3G: 0%; rRNA inh HTS OD600: -6&-13; rRNA inh HTS RFP: 5.6&3.7

Results for O=C(c1ccccc1)N(CCCl)C(=O)N(CCCl)C(=O)c1ccccc1 ?
rRNA inh HTS: 6; AF4-AF9 inh: 1.9; Vif A3G: -7%; rRNA inh HTS OD600: 20; rRNA inh HTS RFP: -3.2

Results for Cc1ccccc1Nc1nc(N)nc(COC(=O)CCS(=O)(=O)c2ccc(Cl)cc2)n1 ?
rRNA inh HTS: -1; AF4-AF9 inh: 3.6; Vif A3G: 14%; rRNA inh HTS OD600: -1; rRNA inh HTS RFP: 6.6

How did COc1ccc(OC)c(NCCN2C(=O)c3ccccc3C2=O)c1 do in these assays?
rRNA inh HTS: -10; AF4-AF9 inh: 8.9; Vif A3G: 0%; rRNA inh HTS OD600: 11; rRNA inh HTS RFP: 9.7

Results for COc1ccc(-c2ccc(CN3C(C)C(=O)N(Cc4cn(CCC5OCCO5)nn4)CCS3(=O)=O)cc2)cn1 (configuration not stated) ?
rRNA inh HTS: -2; AF4-AF9 inh: 0.4; Vif A3G: 3%; rRNA inh HTS OD600: -5; rRNA inh HTS RFP: -2.1

How did O=C1c2ccccc2S(=O)(=O)c2cc(-c3nn[nH]n3)ccc21 do in these assays?
rRNA inh HTS: -4; AF4-AF9 inh: -4.6; Vif A3G: 8%; rRNA inh HTS OD600: 7; rRNA inh HTS RFP: -2.1

Results for CCOC(=O)Nc1nc2ccc(Cn3cccc3)cc2[nH]1 ?
rRNA inh HTS: 5; AF4-AF9 inh: -3.3; Vif A3G: 9%; rRNA inh HTS OD600: 11; rRNA inh HTS RFP: -0.5

Results for CC(=O)Nc1ccc(C=C(C#N)c2ccc(C)cc2)cc1 ?
rRNA inh HTS: -2; AF4-AF9 inh: 2.3; Vif A3G: 64%; rRNA inh HTS OD600: -41; rRNA inh HTS RFP: -9.6

How did CCOc1cc(/C=N/NC(=O)c2c(C)nc3ccc(Cl)cn23)ccc1O do in these assays?
rRNA inh HTS: 3; AF4-AF9 inh: -0.6; Vif A3G: -10%; rRNA inh HTS OD600: 13; rRNA inh HTS RFP: 4.7

Results for CCC(C)C1(C2CCCC2)NC(=O)NC1=O (configuration not stated) ?
rRNA inh HTS: 5; AF4-AF9 inh: -2.5; Vif A3G: -6%; rRNA inh HTS OD600: 6; rRNA inh HTS RFP: 7.7

How did COCCN(C(=O)c1ccc(-c2ccc([N+](=O)[O-])cc2)o1)c1c(N)n(CC(C)C)c(=O)[nH]c1=O do in these assays?
rRNA inh HTS: 4; AF4-AF9 inh: -0.4; Vif A3G: 8%; rRNA inh HTS OD600: 5; rRNA inh HTS RFP: -1.0

Results for COCOCCn1cc(CN2CCS(=O)(=O)N(Cc3ccc(-c4ccc(F)cc4)cc3)C(C(C)C)C2=O)nn1 (configuration not stated) ?
rRNA inh HTS: -9; AF4-AF9 inh: 0.4; Vif A3G: 2%; rRNA inh HTS OD600: -21; rRNA inh HTS RFP: -0.4
